High-throughput results deposited in PubChem BioAssay by ICCB-Longwood Screening Facility, Harvard Medical School.
Sa growth inh: inhibitors of Staphylococcus aureus growth at 42 °C; S. aureus RN4220 growth, OD600, 20 h; stronger effect = lower value; relative growth, % (no concentration beside the values); 170,000 tested, 0.53% active; AID 720641;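 active = growth at 42 °C up to 50% and 20 or more points under that at 30 °C, or under 10% at both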;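 note: 300 nL library stock went into each well; scaled to the means of positive and negative controls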
HCMV NEC inh: cytomegalovirus nuclear egress complex inhibition; 190,000 tested, 0.15% active; inhibition, % (concentration not given with the values); HTRF UL50-UL53 interaction, normalized percent inhibition;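 active = both replicates at 50% or more, plus weaker picks with an unusually low signal ratio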;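 note: stock transfer was 100 nL into about 20 µL; 0% = negative control wells and 100% = wells with untagged competitor protein; inactives centre near -12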
GIV Gai3 FP: GIV-Galpha-i interaction inhibition. 210,000 tested, 0.42% active. percent of control (FP), % (concentration not given with the values). Galpha-i3/FITC-GIV peptide fluorescence polarization, 90 min; stronger effect = lower value; scaled: aluminum fluoride 0%, vehicle 100%. P08753;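 active = replicate mean at 85% of control or lower, very high polarization wells dropped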;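 note: wells of about 15 µL received 100 nL stock; the first replicate is given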
Target sequence (P08753 whole entry, looked up): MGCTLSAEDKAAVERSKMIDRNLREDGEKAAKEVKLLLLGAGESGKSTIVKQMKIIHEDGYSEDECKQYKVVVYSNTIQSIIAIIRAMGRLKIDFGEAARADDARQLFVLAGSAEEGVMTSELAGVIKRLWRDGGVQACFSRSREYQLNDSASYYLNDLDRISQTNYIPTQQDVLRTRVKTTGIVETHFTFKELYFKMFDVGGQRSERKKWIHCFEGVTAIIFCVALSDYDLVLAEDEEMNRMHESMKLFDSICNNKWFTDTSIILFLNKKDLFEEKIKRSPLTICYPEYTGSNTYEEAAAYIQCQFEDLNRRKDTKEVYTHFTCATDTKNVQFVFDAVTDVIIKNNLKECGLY
Sa growth inh second temp: second read-out of Sa growth inh, no call of its own (marks repeat the call); relative growth, %; measured here: growth at 30 °C;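 optical density after 20 h as mean of two plates; 100% = untreated growth and lower means inhibition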
An asterisk follows results filed as active; . = no result given; & = joins results of further samples. Not a hit list, and some 0.83% of all compounds hit somewhere here.

Compound	Sa growth inh	Sa growth inh second temp	HCMV NEC inh	GIV Gai3 FP
CN(C)c1ccc(C2N(C(=O)C(F)(F)F)CCN2S(=O)(=O)c2ccccc2)cc1 (stereo not given)	96	87	-19	101
O=c1[nH]nc(C(F)(F)F)c2nnn(Cc3ccccc3Cl)c12	82	81	-12	100
Cc1ccc(C(=O)N(c2ccc3oc(=O)sc3c2)S(=O)(=O)c2ccc(F)cc2)cc1	.	.	-13	99
COc1ccc(OC)c(NC(=O)NCCc2nc3cccnc3n2C2CCCCC2)c1	.	.	-14	111
O=C(CSCc1ccco1)NC1CCCC1	101	84	-25	.
Cn1c(-c2cccnc2)n[nH]c1=S	91	85	-17	106
CC(C)C(NC(=O)c1ccc2c(=O)n3c(nc2c1)CCC3)c1ccc2c(c1)OCCCO2 (stereo not given)	97	84	-28	.
CC1CCN(S(=O)(=O)Cc2ccccc2)CC1	108	90	-14	.
COC(=O)CSc1nnc2c(n1)[nH]c1ccccc12	100	90	3	.
COC(C(=O)Nc1ccc2c(c1)OCCO2)c1ccccc1 (stereo not given)	108	90	0	103
CS(=O)(=O)N1CCN(C(=O)CCCC(=O)O)CC1	91	93	19	103
Cn1c(=O)c2c(-c3ccc(Cl)cc3)n(CCc3ccccc3)cc2n(C)c1=O	113	102	19	103
OCCN(c1ccccc1)c1ncnc2onc(-c3ccc(F)cc3)c12	103	92	-22	100
CCSc1nnc(COc2ccccc2)n1CC	88	104	-32	107
COC(=O)C(C)Oc1nc(C)c(Br)c(OC)n1 (stereo not given)	110	90	1	.
Cc1ccc(Cn2c(=O)cc(C(=O)NCc3cccs3)c3ccccc32)cc1	106	89	.	101
CSC(=NC#N)N1CCC(C(=O)c2ccccc2)CC1	91	86	.	99
CCC(C)NC(=O)c1ccccc1NC(=O)Nc1ccccc1 (stereo not given)	111	102	-8	97
Cc1cc(C(=O)COn2nnc3ccc(Cl)cc32)c(C)n1Cc1cccs1	84	82	-24	.
O=C(O)c1cccc(-n2ncc(Cl)c(Cl)c2=O)c1	99	103	-33	90
Cc1nc2ccccc2n(Cc2ccc(C(=O)N3CCN(c4ccccn4)CC3)cc2)c1=O	.	.	-55	104
Cc1noc(C)c1CNc1ccccc1	91	93	-1	.
CCOc1cc(C2C(C(=O)N3CCOCC3)=C(C)NC3=C2C(=O)CC(C)(C)C3)cc(Br)c1OCC (stereo not given)	100	90	-6	94
CSc1nc2ccc(NC(=O)CNC(=O)c3cccs3)cc2s1	116	99	6	.
Cc1cccc(N2CCN(c3ncc(C(=O)O)cc3NS(=O)(=O)c3cccc(C)c3)CC2C)c1 (stereo not given)	.	.	-34	103
CCN1CCN(c2ncnc3c2cnn3-c2cccc(C)c2)CC1	108	94	.	101
COc1ccc(S(=O)(=O)NCCS(=O)(=O)N2CCN(c3ccccc3)CC2)cc1C	98	103	.	104
O=C(NC1CC(=O)N(c2ccc3c(c2)OCCO3)C1)c1ccc2ccccc2c1 (stereo not given)	96	93	-37	102
COc1ccc(NC(=O)C2Cc3ccccc3N2C(=O)c2ccccc2)c(OC)c1 (stereo not given)	84	92	.	105
CCOc1ccc(-c2nnc(SCC(=O)Nc3ccc(C)cc3Cl)o2)cc1	102	90	5	101
CCCCSc1nnc2c(n1)OC(C)(CC)Nc1ccccc1-2 (stereo not given)	.	.	-18	105
CN1CC(=O)N(CC(=O)c2ccc(Cl)s2)C1=O	103	96	-24	.
O=C(Cn1ncc2c3ccccc3n(Cc3ccccc3)c2c1=O)NCc1ccccn1	93	79	-28	110
Cc1csc(CC(N)=S)n1	84	82	-28	.
O=C(NCC(c1ccco1)S(=O)(=O)c1cccs1)c1ccc(C(F)(F)F)cc1 (stereo not given)	113	80	.	107
O=C(NCCc1ccccc1)C1CC(=O)N(C2CCCCCC2)C1 (stereo not given)	94	82	3	103
CC1CCC(NC(=O)Cn2c3ccccc3c3cn[nH]c(=O)c32)CC1 (stereo not given)	102	95	.	100
Cc1cccc2c(=O)cc(CSc3ccccc3NC(=O)c3cccc(Cl)c3)[nH]c12	88	87	.	104
Cn1cnc(S(=O)(=O)N2CCC(C(=O)Nc3ccc(C#N)cc3)CC2)c1	108	90	.	99
COc1ccc(OCC(O)CNC(=O)Nc2cc(F)ccc2C)cc1 (stereo not given)	88	95	-17	101
COc1ccc(-c2noc(-c3ccc(N4CCN(c5ccccc5)CC4)c([N+](=O)[O-])c3)n2)cc1OC	100	91	-17	102
CCOC(=O)c1ccc(NC(=O)C2=C(C)Nc3nc(SCc4ccc(Cl)cc4)nn3C2c2ccc(C)cc2)cc1 (stereo not given)	93	95	-41	103
Cn1c(=O)c2cc(C(=O)NC3CC3)sc2c2ccccc21	112	99	-44&-18	103&100
COc1ccc(-c2noc(-c3ccc(NC4CCCC4)c([N+](=O)[O-])c3)n2)cc1OC	102	88	-10	100
CSC1=Nc2ccccc2CN1c1ccc(Br)cc1	96	90	-4	.
CCOc1ccccc1C1CC(=O)Nc2nc(N)[nH]c(=O)c21 (stereo not given)	.	.	-14	101
CCC(=O)N1c2ccccc2N=C(c2ccccc2)CC1c1ccccc1 (stereo not given)	94	95	-14	102
Cc1oc2c(c1C(=O)NCCCN1CCOCC1)C(=O)c1ccccc1C2=O	1.7*	2.0*	-95	102
C=C(C1CC1)N(C(=O)c1ccc(F)cc1)c1ccc(OC)cc1	100	103	-7	102
N#Cc1ccc(CN2C(=O)c3ccccc3Sc3ccc(C(=O)OCc4ccco4)cc32)cc1	101	102	.	108
CC1(C)CC(NC(=O)c2cccc3ccccc23)CC(C)(C)N1	102	87	-10	.
c1cc(CN2CCCCC2)cc(OCCCNc2nc3ccccc3s2)c1	.	.	-5&-11	101
O=c1cc(N2CCOCC2)nc2scc(-c3ccc(Cl)cc3)n12	.	.	-17	109
Cc1ccc2ncc3c(-c4ccc(F)cc4)nn(-c4cccc(F)c4)c3c2c1	66	87	.	100
COc1cc(NC(=O)c2cc(C)nc3c2c(C)nn3-c2ccccc2Cl)cc(OC)c1	105	87	-25	102
COc1ccc(CCn2c(=O)[nH]c3cc(C(=O)N4CCN(c5ccccc5)CC4)ccc3c2=O)cc1OC	100	89	.	112
N#CCC(=O)c1ccco1	86	97	-21	.
CC1CCCCC1NC(=O)CSC1=Nc2ccccc2C2CC=NN12 (stereo not given)	88	94	-14	.
FC(F)(F)c1cccc(Cc2c[nH]c(=S)s2)c1	97	77	-16	.
Cc1cc(N2CCN(C)CC2)nc2ccc(NC(=O)Nc3ccccc3)cc12	97	90	2	107&102

(continued)
Compound	Sa growth inh	Sa growth inh second temp	HCMV NEC inh	GIV Gai3 FP
Cc1ccc2c(=O)cc(C(=O)Nc3cccc(Cl)c3C)oc2c1C	110	88	-10	107
Cc1cc(Nc2ccccc2)c2ccccc2n1	89	83	-8	102
O=C(OCN1C(=O)c2ccccc2C1=O)c1cc[n+]([O-])cc1	78	84	-57	.
CCOCCCNC(=O)c1c(NC(=O)c2nc(SCC)ncc2Cl)sc2c1CCC2	.	.	-17	147
COc1cc(NC(=O)CC2C(=O)N(c3ccccc3)C(=O)N2Cc2ccc(F)cc2)cc(OC)c1 (stereo not given)	95	86	.	104
CCCCN(Cc1cc2cc(OC)ccc2[nH]c1=O)C(=O)c1cccc(Cl)c1	97	84	.	101
CCn1nc(-c2ccccc2)c(-c2ccccc2)c(C(=O)Nc2nc(C)c(C(=O)N(C)C)s2)c1=O	94	86	-31	100
CCOC(=O)c1cc(S(=O)(=O)N(C)CC(=O)NC2CC2)cn1C	.	.	-15	101
O=C(Nc1cccn2ncnc12)c1cccc(C(F)(F)F)c1	.	.	-14	105
O=C(COc1ccc(Cl)cc1)NCC(c1ccco1)S(=O)(=O)c1ccc(F)cc1 (stereo not given)	107	87	.	96
O/N=C/c1cccc(Oc2ccccc2)c1	108	93	-34	.
Cn1ccsc1=NC(=O)Cn1cnc2ccccc2c1=O	97	85	-23	.
O=C(Nc1ccc2c(c1)OCO2)C12CC3CC(CC(O)(C3)C1)C2	87	87	-24	.
O=C(CCN1C(=O)C2CC=CCC2C1=O)Nc1nnc(C2CC2)s1 (stereo not given)	105	91	17	.
C=CCn1nc2n(c1=O)-c1ccccc1SC2	99	93	-7	106
COc1cccc(NC(=O)CCNS(=O)(=O)c2ccc3c(c2)CCCC(=O)N3)c1	113	84	.	101
O=C1CCCc2c1cc(C(=O)Nc1ccccc1)c(=O)n2-c1ccccc1	102	100	.	108
CCCCc1oc2ccccc2c1CNC	93	85	-27	.
O=C1Cc2cc(C(=O)Cn3nc(C(=O)O)c4ccccc4c3=O)ccc2N1	70	90	-9	.
CCn1c(=O)cc(SCC(=O)NCCCN2CCN(C)CC2)c2ccccc21	84	89	-8	102
Cc1c(N)cccc1-n1c(C)ccc1C	103	93	-3	107
CCc1ccccc1NC(=O)CN1C(=O)c2cccnc2Oc2ccc(Cl)cc21	69	83	.	111
Cc1ccc(N(C(=O)c2ccc(Br)o2)C(=O)N2CCCCC2)cc1	105	104	-15	105
CCOC(=O)CC1(O)CSc2nc3sc4c(c3c(=O)n21)CCCC4 (stereo not given)	83	69	-16	106
CC1CCCCN1S(=O)(=O)c1cc2c3c(c1)CC(=O)N3CCC2 (stereo not given)	120	85	.	93
O=C(c1ccc(NC(=O)N2CCCCc3ccccc32)cc1)N1CCN(c2ccccc2)CC1	.	.	-6	101
COc1ccc(C2=NN(S(=O)(=O)c3ccccc3)C(c3cccc([N+](=O)[O-])c3)C2)cc1 (stereo not given)	.	.	0	102
NCc1c(Cl)cc(C(F)(F)F)cc1Cl	111	57	-3	99
Cc1cc(C)c(OCC(=O)N(Cc2ccco2)Cc2ccco2)c(C)c1	79	66	-20	105
O=C(O)c1cc2ccc(O)cc2oc1=O	81	86	-89	100
CCC(C)c1ccc(NC(=O)NC(C)(C)C)cc1 (stereo not given)	105	92	-28	98
O=C(c1ccccc1)N1CCCCC1	109	98	-1	99
COC(=O)c1c(C)cc(=O)n2c1[nH]c1ccccc12	122	73	-22	.
CCc1ccccc1-n1cnc2cc(C(=O)NC3CCCCCC3)ccc21	130	77	.	105
CCNc1nc(NC(N)=S)nc(NC(C)(C)C)n1	88	60	-33	96
O=C(O)C1Sc2c(sc(=O)n2Cc2ccccc2)C2c3ccccc3OC(=O)C12 (stereo not given)	88	87	-13	.
C=Cc1ccc(CN2C(=O)c3ccccc3Sc3ccc(C(=O)OCc4ccco4)cc32)cc1	91	86	.	102
CN1C2CCC1CC(N(CCc1c[nH]c3ccccc13)C(=O)c1ccc(F)cc1)C2 (stereo not given)	.	.	-21	97
Cc1cc(C(O)(C(F)(F)F)C(F)(F)F)cc(C)c1O	107	90	-6	.
CCc1ccc(NC(=O)CC2C(=O)OCCN2CC)cc1 (stereo not given)	47	27	2	102
COc1ccc(-c2nc3c(=O)n(C)c(=O)nc-3n(C)n2)cc1OC	53	25	74	57*
COc1cc(OC)c(NC(=O)Nc2nnc(N(C)C3CCCCC3)s2)cc1Cl	115	93	-20	104
CCOC(=O)c1c(C)[nH]c(C)c1S(=O)(=O)N1CCCC(C(=O)Nc2cc(C)nc3ccccc23)C1 (stereo not given)	.	.	-17	105
COc1ccc(C2CC(=O)N(c3cccc(OC)c3)C(=O)C2)cc1	.	.	-20	99
COc1ccc(-c2ccnc(-c3ccncc3)n2)cc1	87	79	-4	102
CC1CCCCC1NC(=O)CN(C)S(=O)(=O)c1cccc2cccnc12 (stereo not given)	88	91	.	101
C=CCNc1nc(NCc2ccccc2)c2cnn(C)c2n1	.	.	22	106
CC(=O)c1ccc(NS(=O)(=O)c2ccc(Cl)c(C(=O)Nc3ccc(Br)cc3)c2)cc1	.	.	-4	99
CC1CCCCC1Nc1ncnc2c1oc1ccccc12 (stereo not given)	31	43	-20	.
COc1cccc(CNC(=O)Nc2cn(CC(C)C)c(=O)c3ccccc23)c1	76	84	.	92
